# NPYLR7 agonist: mosquito NPYLR7 agonism; HEK293T NPYLR7/Galpha15, GCaMP6s calcium fluorescence; activation, % at 10 µM; actives 0.15% (n = 270,000); in the data active = activation above about 40%;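 note: 0% = vehicle and 100% = reference agonist at the receptor; some compounds past the cut are filed as inactive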
# NPYLR7 agonist max-min: further read-out of NPYLR7 agonist, marked with its call; activation, %; measured here: Max-Min RFU normalised activation; some inactives read as strong as hits;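 span of the calcium signal over five minutes; 0% = vehicle and 100% = native peptide agonist; compound fluorescence can raise it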
# Active calls of the source: *; & = joins results of further samples. This is a subset; rates above refer to the full screens.
SMILES,NPYLR7 agonist,NPYLR7 agonist max-min
Cc1noc(C)c1CNS(=O)(=O)c1cnn(C)c1,9,6
Cc1ccc(C)c(Nc2nc(Nc3ccc(F)cc3)nc3nccnc23)c1,3,11
Cc1ccc(Sc2ccc(CN3C[C@H](N(C)C)C[C@H]3CO)o2)cc1,3,2
O=c1[nH]nc(-c2cccs2)o1,-1,-2
CN(CC1CCCN(CCc2ccc(Cl)cc2)C1)C(=O)c1cnsn1 (stereo not given),1,-2
O=S(=O)(c1cnc[nH]1)N1CCCc2cccc(Br)c21,6,2
CC1CCCCC1NC(=O)c1cc2c(s1)CSC2 (stereo not given),16,11
Cc1cc(-n2c(C)cc(C(=O)COC(=O)c3cc(C)oc3C)c2C)no1,-1,17
Cc1ccc(N2CCN(C(=O)CCN3CCCCO3)CC2)c(C)c1,25,17
CN(C)c1ccc(/C=C/C(=O)N(C)C2C3CC4CC(C3)CC2C4)cc1 (stereo not given),12,6
Cc1cc2c(cc1O)NC(=O)CC2c1ccc(-c2ccn[nH]2)o1 (stereo not given),3,2
COCCCNC(=O)c1cc(-c2ccc(OC)cc2OC)nn1-c1ccc(Cl)c(Cl)c1,-4,-3
O=C(NCCOc1ccccc1)c1cc2n(n1)CCN(Cc1ccc(Cl)c(Cl)c1)C2=O,21,7
Cn1c(=O)c2c(nc(CN3CCC(Cc4ccccc4)CC3)n2CC(=O)c2ccccc2)n(C)c1=O,-5,-8
CC(C)=CCC/C(C)=C/CNC(=O)c1ccccc1F,-4,-12
Cc1ccc(C(C)C)cc1OCC(=O)N=Nc1c(O)[nH]c2c(C)cccc12,0,-6
CCCCC1C(=O)N(C)CCN1C(=O)c1cc(NC(C)=O)ccc1Cl (stereo not given),12,6
COc1cccc(OCC(=O)N2CCC3(CCN(C)C3)CC2)c1,16,4
CC(C)CCNCC(=O)Nc1ccon1,20,16
CCn1c(C(C)N2CCCC2)n[nH]c1=O (stereo not given),-6,-7
COc1ccc(NS(=O)(=O)c2ccc(Cl)c(Cl)c2)cc1,-22,-23
CCCc1cc(C(=O)N2CCCC3(CC2)CNC(=O)O3)cs1 (stereo not given),1,0
COCCn1c(C)cc(O)c(C(c2cccnc2)N2CCC(Cc3ccccc3)CC2)c1=O (stereo not given),11,5
CC(C)NC(=O)[C@@H]1Cc2nc[nH]c2CN1,-8,-16
COc1cc(/C=C/C(=O)O)cc(S(=O)(=O)Nc2ccc(F)cc2)c1OC,2,3
SMILES,NPYLR7 agonist,NPYLR7 agonist max-min
CNC(=O)[C@@]1(OCc2cccc(F)c2)CC(OCc2cccc(OC(F)(F)F)c2)[C@@H]2OC(C)(C)O[C@@H]2C1 (stereo not given in full),5,11
O=c1c2c3c(sc2ncn1CC1(O)CCCCC1)CCC3,-5,-5
Cc1cc(C)n2c(NC3CCCCC3)c(-c3ccc(Cl)cc3)nc2n1,25,22
N#Cc1cccc(NC(=O)N2[C@@H](c3ccccc3)[C@@H](CO)C[C@]23CCCCN(CCO)C3=O)c1,0,8
COc1ccccc1C(=O)Nn1cnc2c(cnn2C(C)(C)C)c1=O,4,4
COCCNC(=O)c1cc(-c2ccc(F)cc2)nc2ccccc12,-16,-23
Cc1onc(-c2c(Cl)cccc2Cl)c1C(=O)N1CCN(c2nc3nccc(-c4ccc(N5CCOCC5)cc4)n3n2)CC1,6,2
CCOC(=O)C1=C(CN2CCCC2c2ccc3c(c2)OCCO3)NC(=O)NC1C (stereo not given),-1,-2
O=C(c1cccc([N+](=O)[O-])c1)N1CCN(C(C(=O)N2CCCC2)C2CCCC2)CC1 (stereo not given),-10,-6
Cc1ccc(-c2ccc(F)cc2O)c2cccnc12,-1,-9
O=C(NC1CCN(c2ccccc2C(=O)N2CCOCC2)CC1)c1ccco1,-1,4
O=c1[nH]c(-c2cccc(Cl)c2)nc2ccccc12,8,7
CCc1[nH]nc(-c2nn3c(C)nnc3s2)c1C,-9,-19
Cc1cccc(-c2ccc(NC(=O)C3CCN(C(=O)c4cscn4)CC3)cc2)c1,13&-5,5&-5
O=C1CCC(C(=O)Nc2ccc(OC(F)F)cc2)=NN1,0,-1
CC(CC(=O)Nc1ccc(S(=O)(=O)Nc2nccc(C(F)(F)F)n2)cc1)c1ccccc1 (stereo not given),6,4
Cn1cnnc1SCC(=O)c1ccc(-c2ccccc2)cc1,0,-2
Brc1ccc(-c2csc3[n+]2CCCCC3)cc1,-1&5,-2&39
Nc1nc(O)c(Sc2ccccc2[N+](=O)[O-])c(=O)[nH]1,-4,-9
CCCCC(=O)NCCc1c(Cc2ccccc2)[nH]c2ccccc12,-13,-15
CCOC(=O)c1ccc(Oc2nc(OC)nc(N(C)C)n2)cc1,2,2
COc1cccc(-n2c(-c3ccccc3)cc(C(=O)N3CCN(C(=O)C(Cl)Cl)CC3)c2C)c1,-2,6
Cc1ccc(C2(O)CCN(c3ccc(CS(C)(=O)=O)cn3)CC2)nc1,4,-8
CC(/C=C1N=C(/C=C/c2ccc(Cl)cc2Cl)OC\1=O)=C\c1ccccc1,0,-8
COc1ccc(C)c2sc(N(CCCN3CCOCC3)C(=O)c3cc(C)on3)nc12,4,2

# Full records from above. Screens in order: NPYLR7 agonist	NPYLR7 agonist max-min
# CNC(=O)[C@@]1(OCc2cccc(F)c2)CC(OCc2cccc(OC(F)(F)F)c2)[C@@H]2OC(C)(C)O[C@@H]2C1 (stereo not given in full) is entered as 5	11
# Cc1cccc(-c2ccc(NC(=O)C3CCN(C(=O)c4cscn4)CC3)cc2)c1 is entered as 13&-5	5&-5
# CCCCC(=O)NCCc1c(Cc2ccccc2)[nH]c2ccccc12 is entered as -13	-15
# N#Cc1cccc(NC(=O)N2[C@@H](c3ccccc3)[C@@H](CO)C[C@]23CCCCN(CCO)C3=O)c1 is entered as 0	8
# Brc1ccc(-c2csc3[n+]2CCCCC3)cc1 is entered as -1&5	-2&39

# Part of the list above, with each value named.
Compound: Nc1nc(O)c(Sc2ccccc2[N+](=O)[O-])c(=O)[nH]1
  NPYLR7 agonist = -4
  NPYLR7 agonist max-min = -9

Compound: CCCCC(=O)NCCc1c(Cc2ccccc2)[nH]c2ccccc12
  NPYLR7 agonist = -13
  NPYLR7 agonist max-min = -15

Compound: CCOC(=O)c1ccc(Oc2nc(OC)nc(N(C)C)n2)cc1
  NPYLR7 agonist = 2
  NPYLR7 agonist max-min = 2

Compound: COc1cccc(-n2c(-c3ccccc3)cc(C(=O)N3CCN(C(=O)C(Cl)Cl)CC3)c2C)c1
  NPYLR7 agonist = -2
  NPYLR7 agonist max-min = 6

# Some of the entries so far, with bars between the fields:
Molecule | NPYLR7 agonist | NPYLR7 agonist max-min
Cn1cnnc1SCC(=O)c1ccc(-c2ccccc2)cc1 | 0 | -2
Cc1ccc(-c2ccc(F)cc2O)c2cccnc12 | -1 | -9
Cc1cccc(-c2ccc(NC(=O)C3CCN(C(=O)c4cscn4)CC3)cc2)c1 | 13&-5 | 5&-5

# Later entries
SMILES,NPYLR7 agonist,NPYLR7 agonist max-min
C#Cc1cccc(C(=O)N2CCCC(C(=O)c3ccc(OC)cc3C)C2)c1 (stereo not given),16,2
COc1cc([C@@H]2c3cc4c(cc3[C@H](O)C3COC(=O)[C@@H]32)OCO4)cc(OC)c1OC (stereo not given in full),11,-36
CCN(C(C)=O)c1nc(/C=C2/SC(=Nc3cccc(C)c3)NC2=O)cs1,0,6
CCc1nc(N(CCC(=O)Nc2ccc(OC)cc2)Cc2ccccc2)c2ccc(Cl)cc2n1,2,11
O=C(CCc1ccco1)N1CCc2[nH]nc(-c3ccc(C(F)(F)F)cc3)c2C1,18,8
COc1cc(CN(C)C(=O)CC2Sc3ccccc3NC2=O)ccc1OC(F)F (stereo not given),6,4
CC(C)NC(=O)C1(C)CCCN1Cc1ccccc1 (stereo not given),2,3
CN1[C@@H]2CC[C@H]1CC(OC(=O)C(CO)c1ccccc1)C2 (stereo not given in full),-3,-7
CN(CC1CCCN(CCc2cccc(C(F)(F)F)c2)C1)C(=O)c1cc(C2CC2)on1 (stereo not given),2,2
Cc1ccc(-n2c(=O)c3ccccc3n(CC(=O)NCc3ccco3)c2=O)cc1Cl,25,35
CCOC(=O)C(=O)Nc1cc(-c2onc3c2CCc2ccccc2-3)ccc1OC,5,5
CCOC(=O)C1CCN(CC(=O)N2N=C(c3ccc(C)cc3C)CC2c2cccc(F)c2)CC1 (stereo not given),-3,3
COc1cc(S(=O)(=O)N2CCN(c3ccccc3C)CC2)ccc1Cl,3,5
Cc1occc1C(=O)Nc1cnn(CC(=O)N2CCc3c([nH]c4ccccc34)C2C(C)C)c1 (stereo not given),11,6
CSc1nnc(CC2CCN(C(=O)[C@@H]3CCCN3)CC2)n1C,2,-1

# Of the compounds above, these contain two or more sulfur atoms.
SMILES,NPYLR7 agonist,NPYLR7 agonist max-min
CC1CCCCC1NC(=O)c1cc2c(s1)CSC2 (stereo not given),16,11
CCN(C(C)=O)c1nc(/C=C2/SC(=Nc3cccc(C)c3)NC2=O)cs1,0,6
